Compound activity (PubChem)
Efflux pump inh = antifungal efflux pump inhibition, Nile Red retention. S. cerevisiae Candida pump triplex. inhibition, % at 10 µM. 0.44% of 330,000 active. AID 485275;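 active = plate passing quality check with inhibition over a set limit, or well fluorescence over plate mean plus 4 SD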;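 also: Nile Red retained in pooled yeast measured as flow cytometry median fluorescence; 0% = buffer negative control and 100% = Enniatin B positive control; higher means more Nile Red kept so more efflux inhibition; some compounds called inactive have numbers as strong as hits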
HCV core dimer = HCV core protein dimerization inhibition | 0.33% of 300,000 active | inhibition, % at 5 µM | TR-FRET GST/Flag-core106 dimerization, 1536-well;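 active = inhibition above the mean of all tested compounds plus 3 SD, set per screening campaign, cut at about 45% in these data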
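assay system = GST-tagged and Flag-tagged HCV core protein residues 1-106 | controls = unlabelled core106 and no-GST-core106 wells | incubation = compound-protein-antibody incubation 4 h at 22.5 °C | probe or stimulus = Eu donor and XL665 acceptor anti-tag antibodies | read-out = % inhibition based on acceptor/donor emission ratio | signal = TR-FRET 671 and 617 nm emission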
Fh CTSL1 inh = counter-screen for PFM18AAP inhibitors: inhibitors of F. hepatica cathepsin L1 | recombinant F. hepatica cathepsin L1, Z-Leu-Arg-MCA fluorescence | inhibition, % at 5.96 µM | 0.49% of 300,000 active | AID 1906;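 active = inhibition above the mean of all tested compounds plus 3 SD, set per screening campaign, cut at about 17% in these data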;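 also: 0% = plate median of test compound wells and 100% = 1 µM Z-Phe-Ala-diazomethylketone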
PP1 inh = blocks human PP1-alpha phosphatase, a PP5 counter-screen. purified PP1alpha, OMFP fluorescence. P62136. inhibition, % at 6.7 µM. 0.9% of 320,000 active;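 active = inhibition above the mean inhibition of all tested compounds plus 3 SD, computed separately for each screening campaign, cut at about 15% in these data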
Target sequence (P62136 whole entry, looked up): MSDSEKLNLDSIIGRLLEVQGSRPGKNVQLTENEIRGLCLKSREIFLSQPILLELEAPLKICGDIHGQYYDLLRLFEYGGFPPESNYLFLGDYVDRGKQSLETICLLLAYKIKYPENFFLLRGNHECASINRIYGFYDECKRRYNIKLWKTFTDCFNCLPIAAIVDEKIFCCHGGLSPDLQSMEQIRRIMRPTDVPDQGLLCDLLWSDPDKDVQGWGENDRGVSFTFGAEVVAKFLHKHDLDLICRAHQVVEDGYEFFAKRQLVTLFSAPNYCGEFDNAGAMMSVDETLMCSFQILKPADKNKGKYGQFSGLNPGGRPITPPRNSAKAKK
procasp7 counter = counter-screen: procaspase-7 (human) activation. recombinant procaspase-7, Ac-DEVD-pNA absorbance 405 nm; D23A/D198A/D206A triple mutant, cannot self-cleave; scale: DMSO 0, 5 µM enzyme 100. AID 463210. 0.093% of 330,000 active. P55210. activation, % at 8.5 µM;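 active = percent activation above the screen-wide mean plus 3 SD, cut at about 25% in these data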
Target sequence (P55210 whole entry D23A/D198A/D206A): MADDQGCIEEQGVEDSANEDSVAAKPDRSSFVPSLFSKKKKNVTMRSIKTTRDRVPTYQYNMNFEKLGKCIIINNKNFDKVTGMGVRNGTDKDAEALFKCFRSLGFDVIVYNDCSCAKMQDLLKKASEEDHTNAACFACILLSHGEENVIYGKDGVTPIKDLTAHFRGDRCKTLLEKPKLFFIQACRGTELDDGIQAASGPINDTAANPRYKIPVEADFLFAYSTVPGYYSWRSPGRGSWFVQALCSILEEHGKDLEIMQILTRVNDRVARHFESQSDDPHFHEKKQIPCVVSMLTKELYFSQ
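Assay system: Uncleavable procaspase-7 mutant enzyme; Input: 2 µM procaspase-7 mutant as dispensed; Also added: DEVD-pNA substrate; Medium: Zinc-free HEPES pH 7.4 with 300 mM NaCl, 0.01% Triton X-100; Timing: 1 h compound preincubation, 2 h substrate cleavage, 25 °C; Measured by: Epi-absorbance of released pNA at 405 nm, two timepoints.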
JMJD2C inh = blocks human GASC-1 demethylase activity | Q9H3R0 | GST-JMJD2C(1-420) H3K9me3 demethylation, DELFIA europium | inhibition, % at 2.35 µM | 0.069% of 330,000 active | AID 2099;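 active = more than half of a compound's replicate wells show inhibition beyond 50%, single wells judged on their own value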;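 also: signal counts dimethyl H3K9 product captured on neutravidin plate; 0% = median of DMSO wells and 100% = 0.3 times that DMSO median; strong numbers were not always called active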
Target sequence (Q9H3R0 1-420 limits assumed): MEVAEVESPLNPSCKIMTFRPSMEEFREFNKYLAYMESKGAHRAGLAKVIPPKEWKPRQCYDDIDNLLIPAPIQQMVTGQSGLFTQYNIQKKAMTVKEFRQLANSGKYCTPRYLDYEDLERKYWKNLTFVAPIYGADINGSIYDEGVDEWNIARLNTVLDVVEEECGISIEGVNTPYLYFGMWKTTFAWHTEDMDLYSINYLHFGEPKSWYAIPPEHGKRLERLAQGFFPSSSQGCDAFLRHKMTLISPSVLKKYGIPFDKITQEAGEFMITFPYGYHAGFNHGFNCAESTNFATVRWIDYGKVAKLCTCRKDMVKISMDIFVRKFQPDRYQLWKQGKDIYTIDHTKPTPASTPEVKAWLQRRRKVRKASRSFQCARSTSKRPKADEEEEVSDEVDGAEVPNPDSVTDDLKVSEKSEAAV
TPT1 inh = inhibitors of Candida albicans tRNA 2'-phosphotransferase TPT1; inhibition, % at 5 µM; AID 1962; 0.81% of 300,000 active; recombinant caTPT1, FP RNA substrate dephosphorylation;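 active = inhibition above the mean of all tested compounds plus 3 SD, set per screening campaign, cut at about 24% in these data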;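 also: plate controls were DMSO alone for no effect and ferristatin control at 100 nM for full effect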
PP5 primary = PP5 (human) phosphatase inhibition | P53041 | purified PP5c, OMFP substrate fluorescence | inhibition, % at 6.7 µM | 0.18% of 320,000 active | AID 1987;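 active = inhibition above the campaign's mean inhibition across all tested compounds plus 3 SD, cut at about 9.5% in these data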;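 also: 0% = DMSO only and 100% = 100 µM cantharidin control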
Starred values were filed as active, the others as inactive; / = not tested or not shown. An excerpt (hit frequency here may not be typical).

SMILES	Efflux pump inh	HCV core dimer	Fh CTSL1 inh	PP1 inh	procasp7 counter	JMJD2C inh	TPT1 inh	PP5 primary
CCSc1nnc(NC(=O)c2ccc3c(c2)OCO3)s1	-0.1	1	1	0	5	0	-2	-0.6
Cc1cccc(C(=O)NNC(=O)c2ccc(-c3ccccc3)cc2)c1	-0.1	21	1	5	6	2	0	-1.3
COc1ccc2cc(C3=CCCCC3)ncc2c1	0.0	/	/	-5	-9	7	/	-1.6
O=C(Nc1ccc(F)cc1)Nc1ccc2c(c1)OCO2	0.0	-15	0	1	-13	-2	-3	0.7
COc1ccccc1OCc1ccc(C(=O)Nc2ccccc2F)cc1	0.2	3	-3	2	3	-6	2	0.4
C/C(=N\NC(=O)c1cccc(S(=O)(=O)Nc2cccc(Cl)c2)c1)c1cccs1	-0.1	1	3	0	4	-27	-4	2.0
C=CCNC(=O)C1CC(=O)N(c2ccc(OCc3ccccc3Cl)cc2)C1 (stereo unspecified)	0.0	-9	-3	1	3	2	-4	2.0
O=C(Nc1ccccc1F)c1ccc(OCc2ccccc2)cc1	0.3	5	1	0	-1	-8	1	0.5
O=C(Nc1nnc(CCc2ccccc2)s1)c1ccccc1	-0.1	-2	8	-5	3	6	-3	-6.0
CCCOc1cc2c(C#N)c(N3CCCC3)nc(N)c2c(N)n1	0.0	-7	3	4	9	7	-1	11*

The last 5 entries of the section before open the next one:
SMILES	Efflux pump inh	HCV core dimer	Fh CTSL1 inh	PP1 inh	procasp7 counter	JMJD2C inh	TPT1 inh	PP5 primary
C/C(=N\NC(=O)c1cccc(S(=O)(=O)Nc2cccc(Cl)c2)c1)c1cccs1	-0.1	1	3	0	4	-27	-4	2.0
C=CCNC(=O)C1CC(=O)N(c2ccc(OCc3ccccc3Cl)cc2)C1 (stereo unspecified)	0.0	-9	-3	1	3	2	-4	2.0
O=C(Nc1ccccc1F)c1ccc(OCc2ccccc2)cc1	0.3	5	1	0	-1	-8	1	0.5
O=C(Nc1nnc(CCc2ccccc2)s1)c1ccccc1	-0.1	-2	8	-5	3	6	-3	-6.0
CCCOc1cc2c(C#N)c(N3CCCC3)nc(N)c2c(N)n1	0.0	-7	3	4	9	7	-1	11*
O=C(CSc1ccc(-c2ccccc2)nn1)N1CCCCC1	0.2	-2	-1	2	7	14	1	0.1
COc1nccnc1NS(=O)(=O)c1ccc(NC(=S)NC(=O)c2ccccc2F)cc1	0.1	-1	-6	-5	-15	3	-1	1.1
CCNC(=O)c1ccc(CSc2nc3ccccc3s2)cc1	0.0	6	-6	1	10	-1	-1	1.9
O=C(Nc1cccc(Br)c1)c1ccc(CSc2ccccc2)cc1	-0.2	12	2	4	5	6	3	4.0
O=C1COc2ccc(C(=O)COC(=O)c3ccccc3[N+](=O)[O-])cc2N1	0.1	7	2	0	4	1	3	2.2
Cc1cc(C)n2nc(-c3cccc(Br)c3)cc2n1	0.1	6	-1	1	-4	-1	4	2.1
COc1ccc(NS(=O)(=O)c2ccc(NC(=S)NC(=O)c3ccc(F)cc3)cc2)nn1	0.1	4	-6	1	-11	6	-1	2.4
Cn1c(-c2ccc(C(F)(F)F)cc2)cc2onc(-c3ccccc3)c2c1=O	-0.1	-1	1	-1	13	-4	2	-0.2
COc1cc2ccccc2cc1C(=O)Nc1ccccc1Cl	0.1	2	-4	2	19	-1	0	1.9
COc1ccc(NC(=O)c2cccc([N+](=O)[O-])c2)cc1	0.0	4	-1	-4	-2	12	0	2.1

Shown with bars between the fields: entries from further up
SMILES | Efflux pump inh | HCV core dimer | Fh CTSL1 inh | PP1 inh | procasp7 counter | JMJD2C inh | TPT1 inh | PP5 primary
O=C(Nc1nnc(CCc2ccccc2)s1)c1ccccc1 | -0.1 | -2 | 8 | -5 | 3 | 6 | -3 | -6.0
CCCOc1cc2c(C#N)c(N3CCCC3)nc(N)c2c(N)n1 | 0.0 | -7 | 3 | 4 | 9 | 7 | -1 | 11*
O=C(CSc1ccc(-c2ccccc2)nn1)N1CCCCC1 | 0.2 | -2 | -1 | 2 | 7 | 14 | 1 | 0.1
COc1nccnc1NS(=O)(=O)c1ccc(NC(=S)NC(=O)c2ccccc2F)cc1 | 0.1 | -1 | -6 | -5 | -15 | 3 | -1 | 1.1

(continued)
SMILES	Efflux pump inh	HCV core dimer	Fh CTSL1 inh	PP1 inh	procasp7 counter	JMJD2C inh	TPT1 inh	PP5 primary
Cc1occc1C(=O)N/N=C/c1ccc(Cl)c([N+](=O)[O-])c1	0.1	7	-1	-3	3	1	0	2.8
COc1ccc(-c2noc(-c3ccco3)n2)cc1OC	-0.1	1	4	-3	7	7	-3	-0.8
CCOC(=O)c1ccc(NC(=O)Nc2ccccn2)cc1	0.0	4	1	-1	2	-6	-3	0.1
O=C(N/N=C/c1ccc2c(c1)OCO2)c1ccc(Br)o1	-0.2	-1	5	2	-6	-1	-1	-0.4
COc1ccc(/C(N)=N/OC(=O)CSc2ccccc2)cc1OC	0.1	-2	-7	-1	-1	2	-4	3.4
Cc1ccc(OC(=O)c2ccc(S(=O)(=O)N(C)C)cc2)c(-n2nc3ccccc3n2)c1	0.0	2	-1	-5	0	-17	0	3.4
CC(=O)Nc1ccc(NC(=O)CSc2ncc(C(=O)Nc3ccc(Cl)cc3)c(=O)n2C)cc1	0.0	2	11	-2	-5	-7	0	2.2
Cc1ccc(CCC(=O)Nc2ccccc2F)s1	0.0	-2	-1	3	6	-10	-5	0.8
O=c1c2ccccc2oc2cc(C#Cc3ccccn3)ccc12	/	-1	-1	-1	7	-1	-1	3.1
COc1cccc(N/C=C/C(=O)c2ccc(Br)cc2)c1	-0.1	6	2	-2	-23	-3	3	-1.7
Cc1cc(C(=O)NN=Cc2ccc(OC(=O)c3ccco3)cc2)c(C)o1	0.0	/	/	/	3	4	/	/
COCC(=O)Nc1nc(-c2ccc(-c3ccccc3)cc2)cs1	-0.1	-9	2	0	-8	-1	-5	-1.3
O=C(Nc1nc2cc3c(cc2s1)OCCO3)C1=COCCO1	0.0	2	6	-4	12	-1	2	-2.1
COC(=O)c1sccc1NC(=O)Nc1ccc(OC)c(OC)c1	0.0	-2	0	-1	3	-1	0	-0.3
CC(C)(C)c1ccc(NC(=O)c2ccccc2)c([N+](=O)[O-])c1	-0.1	1	2	0	-5	2	1	2.0
CN1C(=O)c2ccc(C(=O)Nc3ccc4c(c3)OCO4)cc2C1=O	0.0	-10	-2	-6	-3	1	-2	4.1
CC(=O)Nc1cccc(NC(=O)CSc2ncc(C(=O)Nc3ccc(F)cc3)c(=O)n2C)c1	0.5	-3	3	34*	0	-6	-1	0.8
Fc1ccc2cc(-c3ccccc3F)ncc2c1	-0.1	/	/	/	-3	-4	/	/
COc1cccc(-c2cc3onc(-c4ccccc4)c3c(=O)n2C)c1	0.3	-8	4	1	0	-5	1	-1.3
CCCCOc1ccc(-c2cn3ccccc3n2)cc1[N+](=O)[O-]	-0.1	2	0	2	-6	-3	-1	6.2
CC(=O)Nc1cccc(NC(=O)CSc2ncc(C(=O)Nc3ccccc3)c(=O)n2C)c1	0.0	-2	1	0	-2	0	-1	-0.1
O=C(OCc1ccccc1)N1CCc2ccccc21	-0.1	10	7	1	-5	1	3	-1.6
COc1ccc(-c2noc(-c3ccoc3C)n2)cc1OC	-0.1	2	-1	-1	-2	-1	-3	1.3
Fc1ccccc1/C=N/Nc1ncnc2ccccc12	-0.1	-5	5	0	-17	2	-3	2.9
O=C(NC1=NC2CCCCC2N1)c1ccccc1 (stereo unspecified)	0.1	5	-2	0	-7	/	-1	3.1
O=C(Nc1ccccc1)C(=O)Nc1ccccn1	0.0	-3	4	-4	6	6	2	-0.5
Cn1c(SCC(=O)NCCc2ccccc2)ncc(C(=O)Nc2ccc(F)cc2)c1=O	0.0	0	0	-5	-1	3	-2	-1.8
c1ccc(-c2cnc(-c3ccccc3)nn2)cc1	0.1	1	3	-6	-3	-4	-1	4.0
Cc1nonc1C(=O)N/N=C/c1cc2c(cc1Br)OCO2	-0.1	4	-2	-1	5	-1	2	1.9
Cc1[nH]n(C(N)=S)c(=O)c1N=Nc1ccccc1C(F)(F)F	-0.3	0	2	1	1	-15	-2	-0.3

One compound at a time, from the list above:
Cc1nonc1C(=O)N/N=C/c1cc2c(cc1Br)OCO2 is entered as Efflux pump inh: -0.1; HCV core dimer: 4; Fh CTSL1 inh: -2; PP1 inh: -1; procasp7 counter: 5; JMJD2C inh: -1; TPT1 inh: 2; PP5 primary: 1.9
COc1ccc(-c2noc(-c3ccoc3C)n2)cc1OC is entered as Efflux pump inh: -0.1; HCV core dimer: 2; Fh CTSL1 inh: -1; PP1 inh: -1; procasp7 counter: -2; JMJD2C inh: -1; TPT1 inh: -3; PP5 primary: 1.3
O=C(OCc1ccccc1)N1CCc2ccccc21 is entered as Efflux pump inh: -0.1; HCV core dimer: 10; Fh CTSL1 inh: 7; PP1 inh: 1; procasp7 counter: -5; JMJD2C inh: 1; TPT1 inh: 3; PP5 primary: -1.6

Next part.
SMILES	Efflux pump inh	HCV core dimer	Fh CTSL1 inh	PP1 inh	procasp7 counter	JMJD2C inh	TPT1 inh	PP5 primary
CCOC(=O)c1cc2sccc2n1CC(=O)N1CCN(C(=O)c2ccco2)CC1	-0.1	-1	-1	0	9	-6	-3	0.4
O=C(Nc1ccc(C(=O)N2CCCCC2)cc1)c1cccc([N+](=O)[O-])c1	0.7	-7	-1	-2	8	1	2	4.3
Cc1nc(-c2ccc(C(=O)N3CCCC3)cc2)cs1	-0.2	-3	-1	1	7	39	1	2.2
O=C(N/N=C/c1cccc(Oc2ccccc2)c1)c1cccc(Br)c1	-0.1	14	-2	0	3	5	-2	1.4
O=C(COC(=O)c1ccccc1Nc1ccc(SC(F)F)cc1)NC1CC1	-0.3	6	1	1	4	10	-4	1.6
Cc1nonc1C(=O)N/N=C/c1ccccc1	-0.1	-4	-3	-3	4	-1	-2	0.4
COc1ccc(OC)c2sc(NC(=O)C3=COCCO3)nc12	-0.1	-18	-2	0	12	1	-3	2.2
O=C(COC(=O)c1cc(Cl)ccc1O)c1ccc2c(c1)OCO2	0.0	3	3	0	8	0	0	0.2
Cc1ccc(O)c(NC(=O)CCC2CCCCC2)c1	0.2	2	2	2	-1	2	3	3.9
O=C(Nc1ccc([N+](=O)[O-])cc1)c1cccc(S(=O)(=O)Nc2ccccn2)c1	0.1	0	4	1	-8	-1	-4	0.9
O=C(Nc1ccc(Cl)cn1)Nc1ccccc1F	-0.1	-1	0	-4	-4	-7	-2	-0.2
O=C1COc2ccc(C(=O)COC(=O)c3ccccc3F)cc2N1	-0.2	/	/	/	6	1	/	/
COc1cccc(C(=O)Nc2ccccc2)c1	-0.1	-5	3	0	-2	-2	1	2.9
Cc1occc1-c1nc(-c2ccncc2)no1	-0.1	-2	1	-4	0	24	1	1.7
COc1ccc(NC(=O)Nc2ccccc2OC)cc1	0.0	-2	-2	-3	6	46	3	0.2
Cc1ccc(-c2noc(-c3ccoc3C)n2)cc1	0.2	-13	-3	-6	1	-3	3	1.6
COc1cccc(NC(=O)Nc2ccc3c(c2)CCC3)c1	0.1	3	-1	-3	6	-2	0	7.1
Cn1ccsc1=NC(=O)c1ccc(S(=O)(=O)C(F)F)cc1	-0.3	10	3	3	0	-11	-1	0.5
